2A Renilla: lowers the Renilla signal of an FMDV 2A StopGo reporter; HEK cells with a luciferase reporter of 2A StopGo recoding; Potency, µM (titrated, usually from 57.5 µM), without a hit: at the top dose signal change, negative = less light; 0.32% of 120,000 active; active means well fitted falling curve with a large enough effect; inconclusive means small, poorly fitted or top-dose-only effect; inactive means no such curve, though single readings can be large or run the other way; also: nearly all actives have a fitted effect of over 55% in size; overnight with compound
2A firefly: FMDV 2A StopGo reporter, firefly signal; HEK cells with a luciferase reporter of 2A StopGo recoding; 0.23% of 120,000 active; Potency, µM (highest dose often 57.5 µM), for the others: at the highest dose signal change, negative = less light; active = well fitted falling curve with a large enough effect; inconclusive = small, poorly fitted or top-dose-only effect; inactive = no such curve, though single readings can be large or run the other way; also: nearly all actives have a fitted effect of over 60% in size; overnight with compound
Starred values were filed as active, the others as inactive; ? = inconclusive; & = joins results of further samples; [ ] = dose if it differs, or a comment. % is scaled to controls: 0 for no effect and ±100 for the full control effect; potency is read from the fitted curve at half-maximal effect.

SMILES	2A Renilla	2A firefly
Cn1c(=O)c2c(ncn2CCC(=O)Nc2c(Cl)cccc2Cl)n(C)c1=O	1%	3%
CC(C)CN(CC(C)C)S(=O)(=O)c1ccc(C(=O)Nc2sc3c(c2C(N)=O)CCN(C(C)C)C3)cc1	?	?
CCC(=O)Nc1ccc(C(C)CC)cc1 (centres undefined)	2%	0%
CC(C)(C)c1ccc(C(=O)Nc2ccc(Cl)cc2F)cc1	21%	126%[activator]
CC(C)n1c(SCCc2ccccc2)nc2c1c(=O)[nH]c(=O)n2C	14%	15%
CN(C)c1ccc(CNC(=O)C2COc3ccccc3C2)cc1 (centres undefined)	2%	120%[activator]
CCOC(=O)c1cnc(N2CCN(Cc3ccccc3)CC2)c2ccccc12	5%	2%
CCN1CCCC1CNC(=O)c1nc(-c2ccc3[nH]ccc3c2)no1 (centres undefined)	3%	1%
CC(C)n1nc(C(=O)N[C@@H](Cc2ccccc2)C(=O)O)c2ccccc2c1=O	134%[activator]	0%
Cc1ccccc1C(=O)Nc1sc2c(c1C(=O)N1CCCCC1)CCC(C(C)(C)C)C2 (centres undefined)	-4%	50%[activator]
Cc1cccc(NC(=O)C2CCCN(S(=O)(=O)c3ccc4c(c3)CCCC(=O)N4)C2)c1 (centres undefined)	20%	21%
Clc1ccccc1N1CCN(Cc2nnc(-c3ccccc3)o2)CC1	3%	-15%
C#CCNC(=O)CSc1nc2ccccc2nc1C	-8%	-9%
Cc1ccc2c(Cl)cc(Cl)c(OCC(=O)NC(=O)NC(C)C)c2n1	-1%	11%
COc1ccc2c(c1)CC(C(=O)NCCCN1CCN(c3cccc(Cl)c3)CC1)CO2 (centres undefined)	-18%	-29%
CC1CN(C(=O)CCn2cnc3sccc3c2=O)CCO1 (centres undefined)	-5%	-12%
CC/C=C(/C)C(=O)NC(C)CN1CCOCC1 (centres undefined)	-9%	-6%
CC(C)COc1ccc(C(=O)Nc2onc3c2CCCC3)cc1	4%	23%
Cc1ccc2oc(=O)n(CCNC(=O)Nc3ccccc3Cl)c2c1	5%&31%	2%&33%
COC(=O)CS(=O)(=O)c1nc2ccccc2nc1N1CCCCC1	27%	53%[activator]
N#Cc1ccc(C(=O)/C=C/c2ccsc2)cc1	16%	19%
Cc1ccc(C)c(S(=O)(=O)N2CCN(C(=O)CCc3ncc(-c4ccc(F)cc4F)o3)CC2)c1	-11%	20%
Cc1ccc(CNC(=O)CSc2nc3ccccc3nc2Cc2ccc(C)cc2)cc1	1%	3%
O=C(NCCSc1c(-c2ccc(Br)cc2)[nH]c2ccccc12)c1ccc(S(=O)(=O)N2CCOCC2)cc1	11%	-11%
Cc1cc(C)c(O)c(-c2n[nH]c3c2C(c2ccccc2F)N(CCCO)C3=O)c1 (centres undefined)	23%	11%
COc1ccc(Nc2oc(COc3ccccc3F)nc2C#N)cc1	-13%	-22%
O=C(CN1CCN(c2cnn(-c3ccccc3)c(=O)c2Cl)CC1)Nc1ccc2[nH]c(=O)[nH]c2c1	-16%	-12%
N#Cc1ccc(S(=O)(=O)Nc2c(NC3CCCCC3)c3ccccc3oc2=O)cc1	27%	6%
CCCn1nc(C(=O)Oc2ccc(C(=O)CC)cc2)c2ccccc2c1=O	-9%	0%
Cc1ccc(CNC(=O)Cn2c(=O)ccc3cc(S(=O)(=O)N4CCC(C)CC4)ccc32)cc1	3%	7%
N#Cc1cn(C2CC2)c(=O)n(Cc2coc(-c3cccc(F)c3)n2)c1=O	-5%	2%
Cc1cnc(C(=O)OCc2ccc(Cl)cc2Cl)cn1	12%	8%
Cc1ccc2oc(C(=O)NC3CCN(C(=O)c4ccco4)CC3)cc(=O)c2c1	-17%	-8%
COc1ccc(CCNC(=O)CSc2cn(CCNC(=O)c3ccc(OC)c(OC)c3)c3ccccc23)cc1OC	-3%	-20%
CCn1cc(S(=O)(=O)Nc2cccc(F)c2)cn1	107%[activator]	0%
Cc1c(Cl)cccc1NC(=O)Cn1nnc2sc3c(c2c1=O)CCCC3	-21%	-13%
Fc1ccc(CNC(=S)NCc2cccc(Br)c2)cc1	249%[activator]	?
Cc1nc(SC(C)c2cccc(Cl)c2)sc1CC(N)=O (centres undefined)	-1%	85%[activator]
CCOc1cccc(/C=C/c2ccc3cccc(O)c3n2)c1OC	20%	40%[activator]
COc1cc2c(=O)c(C(=O)c3ccc(C)c(C)c3)cn(Cc3ccc(F)cc3)c2cc1OC	-8%	-11%
Cc1ccc(OCC(=O)N(c2ccc(C)cc2)S(=O)(=O)c2ccc(Cl)cc2)cc1	175%[activator]	-2%
O=C(Cn1ccn(-c2ccc(F)cc2)c(=O)c1=O)Nc1ccccc1C(F)(F)F	-15%	0%
COc1ccc(CCNC(=O)C2CCN(Cc3nc(-c4ccc(OC)c(OC)c4)oc3C)CC2)cc1OC	-12%	-12%
CCn1nc(C(=O)NCC(c2cccs2)N2CCCC2)c2ccccc2c1=O (centres undefined)	9%	0%
O=C(CCCc1cccs1)N(CC1CCOC1)C1CC1 (centres undefined)	-3%	3%
CCS(=O)(=O)c1ncc(Cl)c(C(=O)N2CCN(c3ccc(OC)cc3)CC2)n1	?	?
O=C(O)c1ccc2nc(-c3cc4cc(Cl)ccc4oc3=O)[nH]c2c1	-8%	4%
Cc1c(C)n(-c2ccccn2)c2ncn3nc(Cc4ccccc4)nc3c12	0%	14%
O=C(O)c1ccccc1SCc1ccccc1Cl	22%	0%
CC(C)c1ccc(S(=O)(=O)N2CCC(N3CCN(Cc4ccccc4)C(=O)C3=O)CC2)cc1	-6%	-8%

Remaining list, next part
SMILES	2A Renilla	2A firefly
CCOc1nc(NC(=O)NS(=O)(=O)Oc2cccc(F)c2)nc(-c2ccccc2)n1	3%	133%[activator]
CCn1c(=N)c(C(=O)NCc2ccccc2)cc2c(=O)n3cccc(C)c3nc21	6%	17%
Cc1cccc(-n2nnnc2C2(NC3CCCCC3)CCCC2)c1	112%[activator]	17%
CCOC(=O)Cc1csc(SCC(=O)NC(C)CC)n1 (centres undefined)	-3%	2%
Cc1ccc(-c2nc(N)sc2CC(=O)OCC(=O)Nc2cccc3ccccc23)cc1	3%	0%
O=C(N/N=C/c1ccccc1Br)c1ccc(Br)s1	-10%[1.06 µM]	40%[activator]
COc1ccc(Cl)cc1NC(=O)Cn1c2ncccc2c(=O)n1-c1ccc(C)c(C)c1	-4%	-20%
CCOc1ccc(Nc2nc(C)c(NC(=O)c3cccc(OC)c3)c(Nc3ccc(OCC)cc3)n2)cc1	-15%	-16%
COc1ccc(C)cc1NC(=O)Nc1cc(C(=O)NCc2ccc(C)cc2)ccc1N1CCCC1	-9%	8%
Cc1cccc(NCC(=O)NC(=O)NCc2ccccc2)c1C(N)=O	-27%	3%
CCCCN1c2ccccc2S(=O)c2ccccc21	-1%	-5%
CCOc1ccccc1CNC(=O)c1ccc2nc(Cc3ccc(OC)cc3)oc2c1	-9%	6%
OCCCNC(=S)NCc1ccccc1	-10%	6%
O=C(NCCNc1ncccn1)NCCC(c1ccccc1)c1ccccc1	3%	-3%
COc1ccc(NC(=O)c2cc(S(=O)(=O)N3CCCCCC3)cn2C)cc1Cl	1%	3%
Cc1ccc(-c2noc(CNC3CCCCC3)n2)cc1	21%	122%[activator]
Cc1ccc(NC(=O)Nc2cn(CC(C)C)c(=O)c3ccccc23)c(C)c1	-11%	-5%
Cc1ccc(NC(=O)CSc2nc3ccncc3[nH]2)cc1F	7%	40%[activator]
Cc1ccc(NC(=O)C(c2ccccc2)N2Cc3ccccc3C2=O)cc1Cl (centres undefined)	90%[activator]	2%
CCc1ccccc1NC(=O)C(=O)NCCc1sc(-c2cccc(F)c2)nc1C	-9%	-12%
CCNCc1ccccc1C(F)(F)F	-2%	12%
Cc1ccc(C)c(CSc2cn(CCNC(=O)c3cccs3)c3ccccc23)c1	-28%	?
CCN(CC)S(=O)(=O)c1ccc2nc(NC(=O)c3ccc(Br)o3)sc2c1	11%	23%
O=C(CCC1N=C2c3ccccc3N=C(SCc3cccc(Cl)c3)N2C1=O)NCc1cccs1 (centres undefined)	-12%	-22%
O=C(COc1ccc(Cl)cc1)OCc1cc(=O)n2nc(C3CC3)sc2n1	-3%	0%

5 compounds drawn at random from the list so far:
SMILES	2A Renilla	2A firefly
Clc1ccccc1N1CCN(Cc2nnc(-c3ccccc3)o2)CC1	3%	-15%
Cc1cccc(NCC(=O)NC(=O)NCc2ccccc2)c1C(N)=O	-27%	3%
C#CCNC(=O)CSc1nc2ccccc2nc1C	-8%	-9%
O=C(N/N=C/c1ccccc1Br)c1ccc(Br)s1	-10%[1.06 µM]	40%[activator]
CCN1CCCC1CNC(=O)c1nc(-c2ccc3[nH]ccc3c2)no1 (centres undefined)	3%	1%

Profiles from above.
Record of CCNCc1ccccc1C(F)(F)F → 2A Renilla = -2%; 2A firefly = 12%
Record of CCCCN1c2ccccc2S(=O)c2ccccc21 → 2A Renilla = -1%; 2A firefly = -5%

Further records
SMILES	2A Renilla	2A firefly
O=S(=O)(c1ccc(Cl)cc1)c1nnn2c1nc(N1CCCCC1)c1sccc12	7%	-24%
Cc1ccc2nc(NCCc3ccc(Cl)cc3)c3nncn3c2c1	-17%	-16%
Nc1nccnc1C(=O)NCC(F)(F)F	-11%	11%
CC(C)C1N=C2c3ccccc3N=C(SCC(=O)NCc3ccc(F)cc3)N2C1=O (centres undefined)	98%[activator]	1%
Cc1cccc(NC(=O)c2ccccc2NC(=O)CSc2nnc(-c3ccncc3)n2C2CC2)c1	28%	5%
CCOC(=O)C(C)NC(=O)c1ccccc1 (centres undefined)	4%	23%
Cc1ccc(SCc2ccc(C(=O)Nc3ccccc3C)cc2)cc1	8%	5%
CCOc1ccc(-c2nc(Cn3nnc(C(=O)Nc4cccc(Cl)c4)c3N)c(C)o2)cc1OC	0%	72%[activator]
CCCNC(=O)Cc1ccc(-n2c(=O)c3ccccc3n(CC(=O)Nc3cc(C)cc(C)c3)c2=O)cc1	-3%	-3%
O=C(Cc1csc2nc(-c3ccc(F)cc3)cn12)NCc1ccccc1	-5%	0%
O=C(Nc1ccccc1OCC(F)(F)F)C1CCN(c2nc3ccccc3o2)CC1	-13%	4%
COC(=O)c1ccc2ccccc2c1OS(=O)(=O)c1ccc(S(C)(=O)=O)cc1	13%	5%
Cc1cc(CSCC(=O)Nc2ccccc2C)on1	0%	3%
COC(=O)[C@H](C(C)C)N(Cc1cn(Cc2ccccc2)nn1)S(=O)(=O)c1ccccc1Br	139%[activator]	0%
CCOc1ccc(C2c3cc(OC)c(OC)cc3CC(=O)N2c2ccc(C(=O)OC)cc2)cc1 (centres undefined)	29%	1%
CC(C)=CCC/C(C)=C/CC/C(C)=C/C(=O)OCC(=O)[C@@]1(O)CC[C@H]2[C@@H]3CCC4=CC(=O)C=C[C@]4(C)[C@H]3[C@@H](O)C[C@@]21C	9%	0%

Some of the compounds tested; count on the stated rates, not on these rows.
